# Screening data: PubChem, several laboratories
# HIV Env fusion = inhibitors of HIV Env-mediated cell fusion; HeLa-JRFL Env/CEM21 cell fusion, luciferase; inhibition, % at 12.3 µM; 360,000 tested, 1.1% active; AID 651610;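 active = mean replicate inhibition score of at least 50 and every replicate individually at or above 50; inconclusive = only one of the two criteria met; inactive = mean below 50 and not all replicates reaching 50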;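 also: 0% = plate neutral controls and 100% = maraviroc near 300 nM; one replicate is shown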
# PABP polyA inh = blocks human PABP binding to poly(A) RNA; fluorescence polarization; P11940; 290,000 tested, 1% active; inhibition, % at 35 µM;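 active = 50% or more with normal probe brightness, or confirmed in later tests; inconclusive = above 50% with abnormal brightness, or retests that disagree; inactive = below 50% or failed in later tests; about a fifth of its hits are not listed in these tables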;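 also: calls also rest on retests at 20 µM and on dose response follow-up; controls were probe without protein and protein plus probe with vehicle; some compounds called inactive have numbers as strong as hits; many hits fall short of the cut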
# CSC inhib = cancer stem cell inhibition; cancer stem cell-like cells viability, luminescence; AID 2717; inhibition, % at 7.5 µM; 300,000 tested, 1.1% active;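 active = mean at 75% or more and at least half the replicates too; inconclusive = mean and replicates disagree; tested in HMLE shEcad cells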;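 also: 0% = median of negative and 100% = median of positive control wells; the first replicate is given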
# eIF4H inh = inhibitors of RNA binding by human eIF4H; AID 2012; 290,000 tested, 0.94% active; inhibition, % at 35 µM; Q15056; eIF4H fluorescence polarization binding assay;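 active = 50% or more with normal probe brightness, or confirmed in later tests; inconclusive = above 50% with abnormal brightness, or retests that disagree; inactive = below 50% or failed in later tests; about a fifth of its hits are not listed in these tables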;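 also: calls also rest on retests at 20 µM and on dose response follow-up; 0% = protein and probe with vehicle and 100% = probe without protein; strong numbers were not always called active; many hits fall short of the cut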
# MT1-MMP act inh = MT1-MMP (human) activation inhibition; P50281; HT1080 RFP-PRO-GFP cells, GFP/RFP ratio fluorescence, overnight; percent of plate control window, DMSO zero; GFP/RFP ratio change, % at 20 µM; 360,000 tested, 0.061% active; AID 651647;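 active = GFP/RFP ratio change of at least 30% with cell ATP level not reduced by more than half and red fluorescence within 50% of control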; also: strong numbers were not always called active
#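 Test system: HT1080 RFP-PRO-GFP cells; Benchmarks: DMSO and RFP-L50D-GFP cell wells; Timing: cells overnight before dosing, compound overnight, 37 °C, 5% CO2; Compound: one 20 µM compound dose with 1% DMSO; Read-out: GFP/RFP fluorescence ratio.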
# Yeast UUG start = alters start codon recognition fidelity in yeast. S. cerevisiae UUG-firefly luciferase reporter, luminescence/redox ratio. activity score, % at 18.7 µM. 350,000 tested, 0.13% active. AID 602363;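 active = replicate mean at a twofold rise or more, about +100% in these data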;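 also: firefly luciferase made from a UUG start codon reports start codon fidelity; reporter light over untreated wells divided by growth signal over untreated wells; some hits fall short of that in this replicate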
# Rce1 inh = inhibitors of yeast Ras-converting enzyme; Q03530; yeast membranes, quenched prenylated peptide cleavage fluorescence; calls only; 290,000 tested, 0.27% active;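 active = fall in fluorescence gain of 50% or more versus controls, with final raw signal at or below 3038400; inconclusive = same 50% fall but final raw signal above 3038400; inactive = fall in fluorescence gain under 50%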;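 also: plate controls were neutral control wells for no effect and wells lacking membranes for full effect; tested at 10 µM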
# Target sequence (Q03530 whole entry, looked up): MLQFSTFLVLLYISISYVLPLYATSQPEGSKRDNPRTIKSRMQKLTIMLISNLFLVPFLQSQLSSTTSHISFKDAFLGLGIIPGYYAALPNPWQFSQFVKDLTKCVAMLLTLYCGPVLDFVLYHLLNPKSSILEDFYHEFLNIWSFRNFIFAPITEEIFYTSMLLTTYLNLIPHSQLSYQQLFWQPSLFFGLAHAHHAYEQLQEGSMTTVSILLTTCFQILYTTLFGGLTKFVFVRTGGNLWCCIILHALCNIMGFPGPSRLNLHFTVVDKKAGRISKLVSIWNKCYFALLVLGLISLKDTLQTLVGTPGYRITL
# MT1-MMP act inh RFP = also measured in MT1-MMP act inh; calls as there; RFP signal change, %; measured here: RFP expression control read;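 0 = vehicle wells; hits needed this value within 50% of zero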
# An asterisk follows results filed as active; i = inactive; ? = inconclusive; . = not tested or not shown; & = joins results of further samples; ! = repeats disagree. These rows are one share of the data. The share of hits here may be higher or lower than overall.
mol,HIV Env fusion,PABP polyA inh,CSC inhib,eIF4H inh,MT1-MMP act inh,MT1-MMP act inh RFP,Yeast UUG start,Rce1 inh
CN1CCC(=C2c3ccccc3CC(=O)c3sccc32)CC1,-2.3&4.7,11.4&6.8,-15.1&-20.2,1.0&-5.7,-11.5&-8.9&-12.3,-0.5&-0.1&-3.5,0.3&-3.4&6.5,i
CN1CCN(c2c(F)cc3c(=O)c(C(=O)O)cn4c3c2SCC4)CC1,.,60.6*!,-14.2&2.6,97.0*!,-5.1,-2.9,-19.4,i
CN1CCN(CCCN2c3ccccc3Sc3ccc(S(=O)(=O)N(C)C)cc32)CC1,11.4,.,3.7,.,-8.8,-8.0,2.0,.
O=C(NCCN1CCOCC1)c1ccc(Cl)cc1,18.2,-4.2,-7.4,-0.6,5.4,2.5,1.2&-12.2,i
O=C(O)CCCCCCCC(=O)O,19.6,7.4,-5.9,-16.6,2.0,1.3,-9.9,i
CCOc1ccc(NC(=S)N2CCC(C(O)(c3ccccc3)c3ccccc3)CC2)cc1,-17.3,-15.8,.,-12.6,-9.2,-2.7,.,i
CN(C)CCC[C@@]1(c2ccc(F)cc2)OCc2cc(C#N)ccc21,4.2,.,-1.4,.,-2.6,3.0,-16.2,i
CCC12CCCN3CCc4c(n(c5ccccc45)C(O)(C(=O)OC)C1)C32 (stereo unspecified),.,56.4*,-1.6,95.8*,-18.1,4.0,2.2,i
COc1cc(NC(=O)c2cc(C3CC3)on2)c(OC)cc1Cl,-30.1,-6.3,-15.8,-9.9,-0.1,-4.6,-22.3,i
O=C1c2c(O)cccc2C(C2OC(CO)[C@@H](O)[C@H](O)[C@H]2O)c2cc(CO)cc(O)c21 (stereo partly specified),-9.8,.,-10.5,.,5.7,4.1,-8.2,.

# Some of these compounds in order of heavy-atom count, rising:
mol,HIV Env fusion,PABP polyA inh,CSC inhib,eIF4H inh,MT1-MMP act inh,MT1-MMP act inh RFP,Yeast UUG start,Rce1 inh
O=C(O)CCCCCCCC(=O)O,19.6,7.4,-5.9,-16.6,2.0,1.3,-9.9,i
O=C(NCCN1CCOCC1)c1ccc(Cl)cc1,18.2,-4.2,-7.4,-0.6,5.4,2.5,1.2&-12.2,i
COc1cc(NC(=O)c2cc(C3CC3)on2)c(OC)cc1Cl,-30.1,-6.3,-15.8,-9.9,-0.1,-4.6,-22.3,i
CN(C)CCC[C@@]1(c2ccc(F)cc2)OCc2cc(C#N)ccc21,4.2,.,-1.4,.,-2.6,3.0,-16.2,i
CN1CCN(c2c(F)cc3c(=O)c(C(=O)O)cn4c3c2SCC4)CC1,.,60.6*!,-14.2&2.6,97.0*!,-5.1,-2.9,-19.4,i
CCC12CCCN3CCc4c(n(c5ccccc45)C(O)(C(=O)OC)C1)C32 (stereo unspecified),.,56.4*,-1.6,95.8*,-18.1,4.0,2.2,i
O=C1c2c(O)cccc2C(C2OC(CO)[C@@H](O)[C@H](O)[C@H]2O)c2cc(CO)cc(O)c21 (stereo partly specified),-9.8,.,-10.5,.,5.7,4.1,-8.2,.
CCOc1ccc(NC(=S)N2CCC(C(O)(c3ccccc3)c3ccccc3)CC2)cc1,-17.3,-15.8,.,-12.6,-9.2,-2.7,.,i

# Returning to the listing, starting 2 compounds before the break.
mol,HIV Env fusion,PABP polyA inh,CSC inhib,eIF4H inh,MT1-MMP act inh,MT1-MMP act inh RFP,Yeast UUG start,Rce1 inh
COc1cc(NC(=O)c2cc(C3CC3)on2)c(OC)cc1Cl,-30.1,-6.3,-15.8,-9.9,-0.1,-4.6,-22.3,i
O=C1c2c(O)cccc2C(C2OC(CO)[C@@H](O)[C@H](O)[C@H]2O)c2cc(CO)cc(O)c21 (stereo partly specified),-9.8,.,-10.5,.,5.7,4.1,-8.2,.
CN(C)CCOC(=O)C(c1ccccc1)C1(O)CCCC1 (stereo unspecified),-6.9,-6.5,-4.4,-5.5,-0.5,1.0,-1.8,i
CCCN(CCC)C(=O)C(CCC(=O)O)NC(=O)c1ccccc1 (stereo unspecified),10.3,13.3,-1.0&-5.2,-5.5,2.1,4.1,1.4,i
CC(=O)O[C@@]12CO[C@@H]1C[C@H](O)[C@@]1(C)C(=O)[C@H](O)C3=C(C)[C@@H](OC(=O)[C@H](O)[C@@H](NC(=O)OC(C)(C)C)c4ccccc4)C[C@](O)([C@@H](OC(=O)c4ccccc4)[C@H]21)C3(C)C,.,5.8,54.7,6.6,.,.,.,i
Nc1cc(=O)[nH]c(N)n1,-14.7,.,-18.6,.,2.3,4.5,-12.7,.
COc1ccccc1OC(=O)Oc1ccccc1OC,29.6,.,.,.,0.3,0.6,-6.4,.
CC(C)(C(=O)c1cccnc1)c1cccnc1,.,.,-5.7,.,0.8,4.0,-0.2,i
O=C1CCc2cc(OCCCCc3nnnn3C3CCCCC3)ccc2N1,.,-8.0&5.3,-4.0,-4.1&1.1,4.2,-6.2,-13.6,i
COc1ccc(Sc2ccc(NC(=O)c3ccccc3Cl)cc2C#N)cc1,.,-5.5,67.7,-0.7,-0.1,-6.6,0.5,i
C/C=C(/C)C(=O)O[C@@H]1c2cc3c(c4c2[C@@]2(CO4)C(=O)C(OC)=C(OC)C=C2C[C@@H](C)[C@H]1C)OCO3,9.3,3.2,5.3,-3.2,0.0,-2.2,1.3,i
CCN(CC)S(=O)(=O)c1ccc(C(=O)O)cc1,-4.5,3.8,-15.2,-7.2,-0.8,0.3,-11.2,i

# Next records.
mol,HIV Env fusion,PABP polyA inh,CSC inhib,eIF4H inh,MT1-MMP act inh,MT1-MMP act inh RFP,Yeast UUG start,Rce1 inh
COc1c(O)cc2c(c1O)[C@@H]1O[C@H](CO)[C@@H](O)[C@H](O)[C@H]1OC2=O,-35.9,5.2,3.8,5.7,1.4,2.4,-1.4,i
CCOC(=O)Nc1ccc(NCc2ccc(F)cc2)nc1N,-31.6,.,-1.4,.,-10.3,32.6,-6.1,.
CCN(CC)CCOC(=O)C(c1ccccc1)c1ccccc1,.,-1.0,2.2,-8.2,-1.1,0.8,-6.2,i
CC[C@]12CCCN3CCc4c(n(c5ccccc45)[C@@](O)(C(=O)OC)C1)[C@@H]32,.,.,-2.5,.,2.8,3.2,9.0,.
Cc1ccsc1/C=C/C1=NCCCN1C,18.4&25.1,2.0,-12.4,-1.3,-0.3&2.4&1.1,-0.5&7.8&5.9,-4.5&10.0&-29.9,i
COc1cc(C(=O)NCCCCCC(=O)O)cc(OC)c1OC,.,4.6,1.6,-4.0,5.1,8.6,1.2&-0.1,i
CCC(Cc1c(I)cc(I)c(N)c1I)C(=O)O (stereo unspecified),19.5,.,-5.1,.,2.6,0.4,2.9,.
Nc1ncnc(Nc2ccccc2)n1,-11.3,.,-9.1,.,-0.5,3.3,-10.2,i
COc1cc2c(c(OC)c1OC)-c1c(cc(OC)c(OC)c1OC)C[C@H](C)[C@H](C)C2,-4.4,4.7,13.8,-1.8,10.3,-3.9,11.9,i
CC1CCc2c(N3CCC(O)CC3)c(F)cc3c(=O)c(C(=O)O)cn1c23 (stereo unspecified),18.5,.,-1.4,.,1.8,-0.9,-6.3,.

# (next part)
mol,HIV Env fusion,PABP polyA inh,CSC inhib,eIF4H inh,MT1-MMP act inh,MT1-MMP act inh RFP,Yeast UUG start,Rce1 inh
C#C[C@]1(O)CC[C@H]2[C@@H]3CCC4=CC(=O)CC[C@@H]4[C@H]3CC[C@@]21CC,-170.3&-120.9,-1.0,-3.4&-1.9,4.1,-0.5&3.0,6.0&3.7,-7.8&-9.9,i
CN=C(N)NC(=O)Nc1c(C)cccc1C,-13.5,-1.5,-3.5,-7.2,1.6,1.4,-17.7,i
CCOC(=O)Nc1ccc2c(c1)N(C(=O)CCN1CCOCC1)c1ccccc1S2,-7.1&-0.7,-0.5&1.5,8.3,-9.3&-2.2,-3.5&-3.3,-0.9&2.5,7.4&-0.6,i
Cc1cc(O)c2c(c1)C(=O)c1cccc(O)c1C2=O,-35.8,?,.,?,.,.,.,.
